Arbovirus anti = antivirals against arbovirus infection; arbovirus infection cell-based antiviral screen; inhibition, % at 10 µM; actives 0.37% (n = 200,000);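 active means inhibition from about 30%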;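 further: bluetongue infection of BSR cells; cell survival read as ATP light after 72 h; 0% = infected wells without compound and 100% = uninfected wells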
YopH inh = YopH (Yersinia) phosphatase inhibition. fluorescence Ex485/Em525. inhibition, %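 (about 10 µM by stock and volumes)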. actives 0.16% (n = 140,000);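 active means inhibition of 50% or more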;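 further: controls were vehicle for no effect and minimum signal wells for full effect; inactives centre near -20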
RecA splice inh = Mtb RecA intein splicing inhibition; cell-free RecA intein splicing, fluorescence; inhibition, %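 (about 9 µM by stock and volumes)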; actives 0.75% (n = 290,000); in the data active means inhibition above about 30%;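 further: 0% = vehicle wells and 100% = reference inhibitor control wells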
Target sequence (P9WHJ3 whole entry, looked up, canonical isoform): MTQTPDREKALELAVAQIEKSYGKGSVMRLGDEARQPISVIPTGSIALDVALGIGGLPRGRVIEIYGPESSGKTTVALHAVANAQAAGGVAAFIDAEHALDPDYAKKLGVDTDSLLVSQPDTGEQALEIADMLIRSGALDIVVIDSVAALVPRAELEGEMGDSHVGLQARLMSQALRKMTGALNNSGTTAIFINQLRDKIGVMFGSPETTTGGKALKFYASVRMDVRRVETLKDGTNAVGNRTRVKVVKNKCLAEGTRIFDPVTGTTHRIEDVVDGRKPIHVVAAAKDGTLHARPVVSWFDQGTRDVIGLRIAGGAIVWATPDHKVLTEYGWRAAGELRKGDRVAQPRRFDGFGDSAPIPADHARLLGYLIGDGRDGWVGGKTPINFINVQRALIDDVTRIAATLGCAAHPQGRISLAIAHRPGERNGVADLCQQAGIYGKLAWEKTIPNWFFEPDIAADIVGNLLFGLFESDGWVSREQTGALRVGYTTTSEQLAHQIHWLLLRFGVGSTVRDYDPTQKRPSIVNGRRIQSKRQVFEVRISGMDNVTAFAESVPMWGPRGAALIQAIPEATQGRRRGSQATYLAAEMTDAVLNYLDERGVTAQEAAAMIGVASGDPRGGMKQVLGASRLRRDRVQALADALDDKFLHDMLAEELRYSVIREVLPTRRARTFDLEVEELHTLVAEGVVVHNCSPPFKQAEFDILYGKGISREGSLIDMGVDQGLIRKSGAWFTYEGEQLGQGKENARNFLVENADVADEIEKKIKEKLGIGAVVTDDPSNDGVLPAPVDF
Mtb H37Rv = M. tuberculosis H37Rv growth inhibitors, H37Rv strain (AID 1626). M. tuberculosis H37Rv growth inhibition; higher % means a stronger effect. one-dose inhibition, % at 10 µM; IC50 in µM for titrated hits. actives 0.95% (n = 220,000);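 active means confirmed in a dose series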;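 further: bacteria incubated seven days before Alamar blue readout; 0% = bacteria only wells and 100% = bacteria with antibiotic wells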
Mtb bLac sens = beta-lactam sensitization of Mtb H37Rv; inhibition, % at 25 µM; actives 0.27% (n = 330,000); AID 434955; M. tuberculosis H37Rv growth with meropenem, percent inhibition; hits of this screen are not shown here;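 active means about 74% or more and at least 40 points above the plate without the antibiotic, then above 30% in a dose series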;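 further: growth measured after seven days incubation then overnight dye step; 0% = bacteria only wells and 100% = bacteria with antibiotic; twin plates without the antibiotic show which effects depend on it; some results filed as inactive read as strong as hits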
Arbovirus anti repeat = also measured in Arbovirus anti; calls as there; inhibition, %; measured here: 10K subset replicate screen; many hits read low in the repeat;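 first of two repeat runs on a subset; 0% = infected and 100% = uninfected wells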
* marks the source's active call; other numbers are inactive results; . = not tested or not shown. Some of the compounds tested (hit frequency here may not be typical).

A first look:
SMILES | Arbovirus anti | YopH inh | RecA splice inh | Mtb H37Rv | Mtb bLac sens | others
CCC(C)NC(=O)CN(c1ccc(Cl)c(Cl)c1)S(C)(=O)=O (centres undefined) | 4 | . | . | 5% | -8
CN(CC(=O)Nc1cccc(S(=O)(=O)NC2=NCCCCC2)c1)Cc1ccc(C(C)(C)C)cc1 | 2 | . | 0.2 | 9% | -1
CN(C)CCNC(=O)C(=O)NCC1OCCN1S(=O)(=O)c1ccc([N+](=O)[O-])cc1 (centres undefined) | 2 | -16 | -1.8 | -1% | 1
C/C(=C\C(=O)c1ccccc1)NNC(=O)c1ccc(Cl)cc1 | . | . | 6.1 | . | 65
COc1cc(OC)cc(C(=O)N2CCN=C2SCc2cccnc2)c1 | 1 | -50 | 3.6 | 5% | -6
CCC(C)(C)n1nnnc1C(c1ccncc1)N1CCC(C)CC1 (centres undefined) | 2 | -27 | -0.1 | -4% | -5
Cc1cccc(N2Cc3ccccc3C2=NC(=O)c2ccc(Cl)nc2)c1 | 6 | 20 | . | -1% | -11
CCCCOc1ccc(C(=O)Nc2ccc(CN3CCOCC3)cc2)cc1 | . | . | -0.2 | . | 72
O=C(COC(=O)c1ccccc1O)Nc1cccnc1Cl | -4 | -34 | 0.3 | -3% | 7
N/C(=N\c1nc2ccccc2o1)NC(=O)/C=C/c1ccccc1 | . | . | -1.2 | 11% | -8
Cc1ccccc1S(=O)(=O)Cc1ccc(C(=O)NCCN(C)Cc2ccccc2)o1 | . | . | 0.2 | . | 2

The listing, previewed entries included:
SMILES | Arbovirus anti | YopH inh | RecA splice inh | Mtb H37Rv | Mtb bLac sens | others
CCC(C)NC(=O)CN(c1ccc(Cl)c(Cl)c1)S(C)(=O)=O (centres undefined) | 4 | . | . | 5% | -8
CN(CC(=O)Nc1cccc(S(=O)(=O)NC2=NCCCCC2)c1)Cc1ccc(C(C)(C)C)cc1 | 2 | . | 0.2 | 9% | -1
CN(C)CCNC(=O)C(=O)NCC1OCCN1S(=O)(=O)c1ccc([N+](=O)[O-])cc1 (centres undefined) | 2 | -16 | -1.8 | -1% | 1
C/C(=C\C(=O)c1ccccc1)NNC(=O)c1ccc(Cl)cc1 | . | . | 6.1 | . | 65
COc1cc(OC)cc(C(=O)N2CCN=C2SCc2cccnc2)c1 | 1 | -50 | 3.6 | 5% | -6
CCC(C)(C)n1nnnc1C(c1ccncc1)N1CCC(C)CC1 (centres undefined) | 2 | -27 | -0.1 | -4% | -5
Cc1cccc(N2Cc3ccccc3C2=NC(=O)c2ccc(Cl)nc2)c1 | 6 | 20 | . | -1% | -11
CCCCOc1ccc(C(=O)Nc2ccc(CN3CCOCC3)cc2)cc1 | . | . | -0.2 | . | 72
O=C(COC(=O)c1ccccc1O)Nc1cccnc1Cl | -4 | -34 | 0.3 | -3% | 7
N/C(=N\c1nc2ccccc2o1)NC(=O)/C=C/c1ccccc1 | . | . | -1.2 | 11% | -8
Cc1ccccc1S(=O)(=O)Cc1ccc(C(=O)NCCN(C)Cc2ccccc2)o1 | . | . | 0.2 | . | 2
CCN(CC)CC(C)OC(=O)c1cc(OC)c(OC)c(OC)c1 (centres undefined) | 11 | 10 | -1.4 | -8% | 1
Cc1ccc(CCN2CC(C(=O)NCCC(C)C)CC2=O)cc1 (centres undefined) | . | . | 5.6 | . | -4
COc1cccc(OC)c1C(=O)NC(=S)N1C[C@H]2C[C@H](C1)c1cccc(=O)n1C2 | . | . | 11 | . | 5
CCCCC1CCC(C(=O)N(CC(C)C)c2c(N)n(CCCC)c(=O)[nH]c2=O)CC1 (centres undefined) | . | . | -5.1 | . | -4
O=C(NCCCN1CCCC1=O)C1CCN(S(=O)(=O)c2c(Cl)cccc2Cl)CC1 | . | . | 9.3 | . | 0
CCOC(=O)c1c(-c2ccccc2)oc2ccc(OC(C)=O)cc12 | -7 | 3 | 14 | 10% | 87
Nc1nnc(SCCOc2cccc(Br)c2)s1 | 9 | -15 | 2.4 | 55% | 58
COc1ccc(-c2nn(C)c(=O)c3ccccc23)cc1NS(C)(=O)=O | -6 | -46 | 2.1 | 6% | -6
CCCCOc1ccc2c(c1)/C(=C(\C(Cl)=C(Cl)Cl)[N+](=O)[O-])N2 | -3 | . | -197 | 1% | 1
CCn1c(SCC(=O)Nc2cc(C)on2)nnc1-c1ccc(C)cc1 | . | . | 0.9 | . | -4
CCOc1ccccc1OCCC(=O)OCC(=O)Nc1c(C)cc(C)cc1C | . | . | 0.0 | . | -3
Cc1oc(CSCC2CCCO2)cc1C(=O)O (centres undefined) | 11 | 20 | -13 | -12% | -11
COc1ccc(C(=O)NC2CC2)cc1OC1CCN(Cc2ccccc2O)CC1 | . | . | 0.5 | . | -1
COc1ccc(C(=O)Oc2c(OC)cc(C(=S)N3CCOCC3)cc2OC)cc1 | . | . | -3.9 | . | -1
COc1cc(OC)c(OC)cc1CNCCNC(=O)c1ccco1 | . | . | 8.0 | . | 3
CCc1ccccc1NC(=O)NC1CC2CCC(C1)N2Cc1ccco1 (centres undefined) | 1 | . | -4.6 | -5% | 2
CCCCN(C)C(=S)Nc1ccsc1C(=O)OC | 4 | . | 4.1 | 8% | 7
Cn1c(C(=O)c2ccccc2[N+](=O)[O-])nc2ccccc21 | 20 | . | -3.9 | 18% | 11
Cc1cc2nccc(-c3ccncc3)n2n1 | 2 | . | 0.7 | 2% | 3
Cc1ccc(S(=O)(=O)N2c3cc(C)ccc3OCC2C(C)(C)C)cc1 (centres undefined) | -16 | -37 | 0.3 | -6% | 6
COc1cc(/C=C2\C(=N)N3N=C(C)SC3=NC2=O)cc(OC)c1OCCOc1ccccc1C | . | . | -1.4 | . | 2
CCOC(=O)C1=C(C)N(C)C(=O)NC1c1c(C)nn(-c2ccccc2)c1C (centres undefined) | -6 | -19 | 2.3 | -1% | 1
Cc1ccc(OCc2nnc(SCC(=O)NCc3ccccc3)n2C)cc1 | 1 | 0 | -0.5 | -4% | -5
CN(Cc1ccc(O)cc1)C1CCCCC1 | -1 | -2 | -1.8 | 8% | -11
CC(=O)Nc1ccc(NC(=O)c2cccc(C(=O)OC(C)C)n2)cc1 | -1 | -42 | 0.6 | -10% | 4
CSc1nc(-c2ccccc2)cc(C(F)(F)F)c1C#N | -5 | -2 | 1.8 | 3% | 3
NS(=O)(=O)c1ccc(NC(=S)NNC(=O)CCC(=O)Nc2ccccc2Cl)cc1 | . | . | 3.0 | . | -1
Cc1cc(=O)n2nc(N3CCCC(C(=O)N4CCc5ccccc54)C3)sc2n1 (centres undefined) | 8 | -16 | -0.3 | -10% | -5
CC(=O)N1CCN(CC(=O)Nc2c(Cl)ccc(C)c2Cl)CC1 | 0 | . | -2.0 | -3% | -2
CC(=O)NN1C(=O)/C(=C2/Sc3ccccc3N2C)SC1=S | . | . | -3.9 | . | -4
O=C(Nc1ccc(N2CCCC2)c(Cl)c1)c1ccc2c(c1)OCCO2 | 7 | -32 | . | 38% | 100
COc1cc(NC(=O)N[C@@H](Cc2ccccc2)C(=O)O)cc(OC)c1 | 5 | -32 | -0.9 | -1% | -1
CC1CCCCN1C(=O)COC(=O)CNC(=O)c1ccc(Cl)cc1Cl (centres undefined) | . | . | -0.8 | . | 2
Cc1nc2ccccn2c1CN(C)C(=O)C1CCC(=O)N(CCc2cccc(F)c2)C1 (centres undefined) | . | . | -0.4 | . | 1
O=C1NC2(CCCCC2)C(=O)N1Cc1cc(=O)n2ccsc2n1 | 11 | . | 1.2 | -3% | -1
COc1ccc(COc2cc(-c3cccc(OC)c3)nc3ccc(NC(=O)c4ccc(C)cc4)cc23)cc1 | -23 | -12 | 0.6 | 62% | 92
Cc1cc(C)n2nc(C(=O)NCC(=O)Nc3ccc(F)c(F)c3)nc2n1 | . | . | 1.2 | . | -3
O=C1CC(N2CCN(c3ccc(F)cc3)CC2)C(=O)N1c1ccccc1 (centres undefined) | 6 | . | 0.9 | 3% | -2
CC(C)NS(=O)(=O)c1ccc(NC(=O)C(C)Oc2ccc(C(=O)c3ccccc3)cc2)cc1 (centres undefined) | -14 | -7 | 3.5 | 8% | 18
COc1ccccc1C(c1nnnn1Cc1ccco1)N1CCN(c2cccc(C)c2C)CC1 (centres undefined) | -7 | -20 | 9.3 | -6% | 8
COCCn1c(C)cc(C(=O)CSc2nc3ccccc3c(=O)[nH]2)c1C | -1 | 20 | -0.8 | 1% | -12
COc1ccc(NC(=O)CSc2nnc(Cc3ccccc3)c(=O)n2N)cc1 | . | . | 2.4 | . | -11
COc1cccc(NC(=O)NCCCSC2CCCCC2)c1 | -13 | -127 | 8.0 | -13% | -5
C/C(CC(=O)Nc1ccc2c(c1)OCCO2)=N\NC(=O)COc1ccccc1 | . | . | 0.2 | . | 12
Cc1cc(C)c(NC(=O)c2cc(=O)c3ccccc3o2)c(C)c1 | 9 | -33 | -1.9 | 8% | 11
Nc1nnc(N2CCCCCC2)s1 | 1 | -46 | -11 | 4% | 4
Cc1cc2nnc(SCC(=O)NCc3ccco3)n2c2ccccc12 | . | . | -2.6 | . | -4
O=C(CNCc1cccs1)Nc1ccc(N2CCCCCC2)cc1 | -11 | . | -2.7 | 1% | 98
CCC(=O)c1ccc(N2CCCC2)c(F)c1 | -1 | -87 | -2.8 | 8% | -8

More compounds.
SMILES | Arbovirus anti | YopH inh | RecA splice inh | Mtb H37Rv | Mtb bLac sens | others
CCCCc1ccc(NC(=S)NCc2cccnc2)cc1 | 14 | -27 | 20 | -1% | -5
Cc1cccc(NC(=O)c2cc3n(n2)C(C(F)(F)F)CC(c2ccc4c(c2)OCO4)N3)c1 (centres undefined) | -23 | -20 | 0.6 | 72% | 4
CCOCCCn1cnc2c([nH]c3cc(OC)ccc32)c1=O | 2 | -25 | 2.5 | -7% | 6 | Arbovirus anti repeat=2
COc1ccccc1NS(=O)(=O)c1cccc(NC(=O)Cc2cccs2)c1 | 17 | -27 | 1.2 | -1% | 7
S=C(Nc1cc(Cl)cc(Cl)c1)NC1CCN(Cc2ccccc2)CC1 | . | . | 4.8 | . | 67
COc1cccc(/C=N/NC(=O)C(=O)N2CCCC2)c1O | -9 | -26 | 1.4 | -10% | 6
COCc1ccc(C(=O)N(C)CC2CCCN(CCc3ccc(Cl)cc3)C2)o1 (centres undefined) | . | . | 0.5 | . | 5
CCOc1ccc(C(=O)O/N=C(\N)c2ccc([N+](=O)[O-])cc2)cc1OCC | -7 | -9 | -3.2 | 6% | 2
O=C(/C=C/c1ccc(Cl)cc1)NCc1ccco1 | -1 | -28 | -2.2 | -3% | 10
O=C(CSc1nnnn1-c1ccccc1)NC(=O)NCc1ccco1 | 3 | -22 | -0.9 | -5% | -13
CC(C)C(NS(=O)(=O)c1ccccc1)C(=O)N1CCCC1 (centres undefined) | . | . | -2.7 | . | -3
CCCCNC(=O)N(O)C1N(/N=C/c2ccccc2F)C(=S)SC1(C)C (centres undefined) | . | . | -14 | . | -1
O=C(O)CCN1C(=O)C2C3c4ccccc4C(c4ccccc43)[C@@H]2C1=O (some centres undefined) | . | . | -4.6 | -3% | -4
COc1ccc(-c2csc(N3C(=N)SCC3=O)n2)cc1 | 0 | -23 | 5.4 | -8% | 3
CC(=O)N1N=C(c2ccccc2)CC1c1ccccc1 (centres undefined) | . | . | -0.1 | . | 3
CSC1=NCCN1C(=O)c1c(F)cccc1F | 8 | -6 | 1.0 | -3% | -5
COc1ccc(OC)c(C(=O)NC(CC(N)=O)c2ccc(NCC3CC3)c([N+](=O)[O-])c2)c1 (centres undefined) | . | . | -0.4 | . | -5
COc1cc2cc(C(c3nnnn3C3CCCC3)N3CCCCCC3)c(=O)[nH]c2cc1OC (centres undefined) | -3 | 16 | -6.4 | 4% | 14
Cc1cc(NS(=O)(=O)c2ccc(NC(=O)c3cccc(OC(F)F)c3)cc2)nc(C)n1 | -1 | . | -1.4 | -4% | 1
Cc1ccc(-c2ccc(=O)n(CC(=O)NCc3ccco3)n2)cc1 | 1 | -39 | . | -3% | 8
O=C(Cc1ccccc1F)NC1CCCc2ccccc21 (centres undefined) | . | . | -3.7 | . | -5
Cc1ccc2c(c1)C1CN(C)CCC1N2C(=O)c1ccccc1NS(=O)(=O)c1cccc(C(F)(F)F)c1 (centres undefined) | 7 | -37 | -2.2 | 10% | -12
CN(CC(=O)Oc1ccc(-c2nnco2)cc1)S(=O)(=O)c1ccc(F)cc1 | . | . | 14 | . | -4
Cc1ccccc1NC(=O)CN(C)S(=O)(=O)c1ccc2c(c1)n(C)c(=O)c(=O)n2C | . | . | -1.1 | . | -1
COC(=O)c1nc2n(n1)C(c1ccccc1OC)C1=C(CCCC1=O)N2 (centres undefined) | 6 | -15 | -1.0 | 1% | -6
FC(F)(F)c1cccc(Cn2nnnc2-c2cc(Cl)cc(Cl)c2)c1 | -20 | -32 | 8.3 | 7% | 11
COc1ccc(C(C)=O)cc1CN1C(=O)NC(c2ccccc2)(c2ccccc2)C1=O | . | . | -0.8 | . | -7

Source: PubChem
